Assay outcomes deposited in PubChem by several laboratories.
WNV NS2B-NS3 inh – WNV NS2B-NS3 proteinase inhibition. P06935. WNV NS2B-NS3 protease, fluorogenic substrate Ex360/Em465; active compounds read low. z-score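 (tested at a level between 10 and 100 µM)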. 65,000 compounds, 0.18% hits. AID 577;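 active means z-score at -3 or under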;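 further: score is relative to mean and spread of the compound wells of a plate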
Target sequence (P06935 1371-1501 limits assumed): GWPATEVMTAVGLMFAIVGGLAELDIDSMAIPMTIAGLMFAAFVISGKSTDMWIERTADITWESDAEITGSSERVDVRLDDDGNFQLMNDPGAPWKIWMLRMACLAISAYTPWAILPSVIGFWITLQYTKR
Target sequence (P06935 1502-1679 limits assumed): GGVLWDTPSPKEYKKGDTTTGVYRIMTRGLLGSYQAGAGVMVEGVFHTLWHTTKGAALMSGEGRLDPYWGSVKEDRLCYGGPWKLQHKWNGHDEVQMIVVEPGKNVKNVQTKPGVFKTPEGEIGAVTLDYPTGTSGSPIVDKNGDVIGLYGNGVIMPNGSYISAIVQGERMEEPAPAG
MT1-MMP promoter – MT1-MMP gene expression reporter suppression – cell-based, luciferase reporter, luminescence (AID 618). MT1-MMP promoter luciferase reporter cells, luminescence. 87,000 compounds, 0.62% hits. calls from a first round at 10 µM; hits with a dose series show EC50 in µM;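 active means over half of the reporter light lost at 10 µM or EC50 under 50 µM; inactive means the rest and hits that failed the dose series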;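 further: actives suppress MT1-MMP promoter-driven transcription so potencies describe inhibitors; HT1080 fibrosarcoma cells; overnight exposure; toxic or luciferase-blocking compounds were not removed from the actives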
Hsc70 ATP site – small molecules displacing fluorescent ligand from Hsc70 – biochemical, fluorescence polarization, primary screen (AID 568); Hsc70 fluorescence polarization, probe displacement; higher % means a stronger effect; strong numbers were not always called active; displacement, % at 20 µM, or IC50 in µM where a hit was titrated; 83,000 tested, under 10 active;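 active means displacement above 50% without optical interference and an IC50 on retest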;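 further: ATPase domain with a fluorescein-tagged ATP probe; 0% = vehicle and 100% = excess ADP; read after one hour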
* = called active by the depositor; i = inactive; x = not tested or not shown. This is a subset, so the mix of outcomes need not match the whole.

SMILES | WNV NS2B-NS3 inh | MT1-MMP promoter | Hsc70 ATP site
CC1=C(C(=O)OC(C)C)C(c2ccc(Br)s2)NC(=O)N1C (stereo unspecified) | 0.11 | i | 3.1%
Cc1cc2ncn(-c3ncnc4sc(C)c(C)c34)c2cc1C | -0.69 | i | 0.8%
O=C(C1CC1)N1CCc2cc(S(=O)(=O)N3CCOCC3)ccc21 | -0.73 | i | -2.7%
COc1ccc(OC)c(S(=O)(=O)N2CCC(C(=O)Nc3cc(C)ccc3C)CC2)c1 | x | i | 2.8%
COc1ccc(C)cc1NC(=O)CSc1nnc(-c2cc3cccc(OC)c3o2)n1N | -0.0046 | i | 3.9%
CCC(C)(C)C(=O)Nc1ncc(S(=O)(=O)c2ccc([N+](=O)[O-])cc2)s1 | x | i | -1.8%
CSC(=NCc1cccnc1)NS(=O)(=O)c1cccs1 | 0.41 | i | -1.5%
CN(CCNC(=O)c1ccc(N2CCCC2=O)cc1)CCc1ccccc1 | 0.59 | i | 6.6%
CC(Sc1nnc(Cc2cccs2)n1C1CCCCC1)C(=O)N1CCc2ccccc21 (stereo unspecified) | x | i | -0.2%
COc1ccc(Nc2oc(COc3ccc(Cl)cc3)nc2C#N)cc1 | -0.59 | i | -1.1%
O=C(Nc1ccc(CN2CCOCC2)cc1)c1cc2ccccc2o1 | 0.18 | i | 1.8%
Cc1ccccc1-n1nc2c(c1NC(=O)COc1ccc(Cl)cc1)CS(=O)C2 (stereo unspecified) | 0.24 | i | 1.3%
COCCn1c(=O)[nH]c2cc(C(=O)N3CCN(Cc4ccc5c(c4)OCO5)CC3)ccc2c1=O | -0.65 | i | -1.9%
CN(C)S(=O)(=O)N1CCc2ccccc21 | 0.37 | i | -1.5%
Brc1ccc(-c2nnc3n2C2(CCCC2)Cc2ccccc2-3)o1 | x | i | 0.1%
Cc1ccc(CN2CC34C=CC(O3)C(C(=O)NCc3ccco3)C4C2=O)cc1 (stereo unspecified) | 0.15 | i | 5.7%
CCOC(=O)C(Cc1ccccc1)NC(=O)CCc1c(C)nc2nc(C)nn2c1C (stereo unspecified) | x | i | -3.1%
COc1ccc(OCCSc2nc(N)cc(N)n2)cc1 | x | i | -1.5%
COc1cc(C(=O)N2CCCC(c3nc(-c4cccs4)no3)C2)cc(OC)c1OC (stereo unspecified) | 0.15 | i | 0.7%
CC1CN(S(=O)(=O)c2ccc(Cl)c(S(=O)(=O)N3CC(C)OC(C)C3)c2)CC(C)O1 (stereo unspecified) | -0.75 | i | 5.7%
Cc1noc(C)c1CSc1nnc2c(C)cc3ccccc3n12 | -0.64 | i | 2.2%
Cn1ccnc1SCc1cn2ccccc2n1 | 2.2 | i | -2.0%
C/C(=N\NC(=O)CC1N=C(Cc2ccccc2)NNC1=O)c1ccc(C)cc1 (stereo unspecified) | x | i | 0.7%
CCN(CC)S(=O)(=O)c1cc(F)ccc1OC | x | i | -1.4%

Some values from above:
`CN(C)S(=O)(=O)N1CCc2ccccc21` in WNV NS2B-NS3 inh reads 0.37
`Cc1noc(C)c1CSc1nnc2c(C)cc3ccccc3n12` in Hsc70 ATP site reads 2.2%
`Cc1ccc(CN2CC34C=CC(O3)C(C(=O)NCc3ccco3)C4C2=O)cc1` (stereo unspecified) in Hsc70 ATP site reads 5.7%
`COc1ccc(OCCSc2nc(N)cc(N)n2)cc1` in Hsc70 ATP site reads -1.5%
`CCOC(=O)C(Cc1ccccc1)NC(=O)CCc1c(C)nc2nc(C)nn2c1C` (stereo unspecified) in Hsc70 ATP site reads -3.1%
`C/C(=N\NC(=O)CC1N=C(Cc2ccccc2)NNC1=O)c1ccc(C)cc1` (stereo unspecified) in Hsc70 ATP site reads 0.7%

Additional entries
SMILES | WNV NS2B-NS3 inh | MT1-MMP promoter | Hsc70 ATP site
O=C(c1cnn2c(C(F)F)cc(-c3ccccc3)nc12)N1CCOCC1 | -1.1 | i | 4.7%
O=c1nc(-c2ccccc2)c2ccccc2[nH]1 | -0.28 | i | 2.1%
O=C1N2CCSC2=NC1(NS(=O)(=O)c1ccccc1)C(F)(F)F (stereo unspecified) | 0.58 | i | 0.1%
CCOc1ccc(Nc2nc(NCCN3CCOCC3)nc(OC)n2)cc1 | -0.06 | i | 3.2%
CCCOC(=O)C1=C(C)OC23OC(N)=C(C#N)C12C(=O)c1ccccc13 (stereo unspecified) | x | i | 3.4%
Cc1cccc(-c2nnc(-c3ccccc3)o2)c1 | -0.26 | i | 3.9%
Cc1c(Cl)cccc1Nc1nc(N)nc(CSCCO)n1 | -2 | i | 1.9%
Cn1nc([N+](=O)[O-])nc1N1CCN(c2ccc(F)cc2)CC1 | x | i | -2.0%
CCC(c1nnnn1C(C)(C)C)N1CCN(C2CCCC2)CC1 (stereo unspecified) | -0.23 | i | 1.6%
Cc1nc(Nc2ccc3c(c2)OCCO3)c2oc3ccccc3c2n1 | x | i | -1.1%
Cc1ccccc1CN1CCN(C/C=C/c2ccccc2)CC1 | x | i | -2.3%
O=C(CSc1ncnc2c1oc1ccccc12)Nc1ccccc1F | -0.0088 | i | -1.6%
COc1cccc(C(=O)N2CCN(CCCc3ccccc3)CC2)c1OC | 0.17 | i | 5.8%
O=C(O)c1cc2nc(-c3ccccc3)cc(C(F)(F)F)n2n1 | -0.91 | i | -5.8%
N#Cc1cc(-c2ccccc2)nnc1Sc1ccc(Cl)cc1 | x | i | 1.6%
O=C(Nc1ccc2ccccc2c1)Nc1ccc2snnc2c1 | x | i | -5.2%
Cc1c(C(=O)Nc2ccc(Cl)cn2)oc2ccccc12 | -0.24 | i | 2.8%
c1ccc(-c2cnc(CSc3nnc4ccccn34)o2)cc1 | -0.26 | i | 1.5%
C=CCNC(=O)c1snnc1-c1ccccc1 | x | i | -2.2%
Cc1ccc(-c2nc(C(=O)NC3CCCCCC3)no2)cc1 | 1.7 | i | 5.2%
O=C(NC1CCCC1)c1cccc(S(=O)(=O)N2CCCCC2)c1 | 0.45 | i | 1.0%
S=C1NCCc2ccc(Cl)cc2C1c1ccccc1 (stereo unspecified) | x | i | 3.0%
CCOC(=O)NC(=O)CSc1nnnn1-c1ccccc1 | -0.39 | i | 1.8%
COc1cccc(C2C(C(C)=O)=C(O)C(=O)N2Cc2ccco2)c1 (stereo unspecified) | x | i | -5.1%
Cc1cc(Cl)ccc1OCCCC(=O)N1CCOCC1 | 1.1 | i | 0.1%
O=C(NCc1cccs1)C1CCN(S(=O)(=O)N2CCCC2)CC1 | 0.23 | i | 3.8%
COc1ccc(CCNC(=O)C2CCN(Cc3nc(-c4ccccc4F)oc3C)CC2)cc1OC | 1.6 | i | -6.1%
O=C(COc1ccccc1)NCCn1ccc2ccccc21 | -0.37 | i | 0.3%
CCN(CC)C(=O)CSC1=C(C#N)C(c2cccs2)C=C(C)N1 (stereo unspecified) | -0.6 | i | 0.1%
CCCSC1=C(C#N)C(c2ccc(O)c(OC)c2)CC(=O)N1 (stereo unspecified) | 0.99 | i | -1.0%
Nc1cc(=O)[nH]c(SCC(=O)Nc2ccc(F)c(Cl)c2)n1 | x | i | 3.6%
O=C(Nc1ccccc1-c1nc2ccccc2s1)c1ccc(Br)o1 | x | i | 4.5%
O=C(Nc1cccnc1)C(Cc1ccccc1)n1cccc1 (stereo unspecified) | 0.0043 | i | -3.8%
CCn1c(SC(C)C)nnc1-c1c[nH]c2ccccc12 | 0.21 | i | 1.3%
Cc1cc(C)nc(Nc2ncc(O)n2-c2ccc(C)c(C)c2)n1 | x | i | 2.2%
CCS(=O)(=O)N1CCN(C(=O)CCC2CCCC2)CC1 | -0.43 | i | 6.2%

Part of the list above, reduced to WNV NS2B-NS3 inh and MT1-MMP promoter.
smiles	WNV NS2B-NS3 inh	MT1-MMP promoter
Cc1cc(Cl)ccc1OCCCC(=O)N1CCOCC1	1.1	i
CCS(=O)(=O)N1CCN(C(=O)CCC2CCCC2)CC1	-0.43	i

(next part)
SMILES | WNV NS2B-NS3 inh | MT1-MMP promoter | Hsc70 ATP site
COc1ccc(-n2c3c(cc(C(=O)Nc4ccc5c(c4)C(=O)NC5=O)c2=O)C(=O)CCC3)cc1 | 1.3 | i | -9.5%
Cc1c(N=Cc2cccnc2)c(=O)n(-c2ccccc2)n1C | x | i | 2.3%
CNc1nc2c(c(=O)n(C)c(=O)n2C)n1Cc1ccccc1 | -0.13 | i | -1.9%
O=C(COc1ccccc1O)Nc1ccc(Cl)cc1 | 0.33 | i | -1.9%
COc1ccc(C(=O)OCC(=O)Nc2ccc(F)cc2F)cc1OC | x | i | -2.1%
OC(COc1ccc2cc(Br)ccc2c1)CN1CCCC1 (stereo unspecified) | -1.1 | i | 5.2%
CCOC(=O)CCC(=O)N1CCNC(=O)C1 | x | i | 0.7%
O=C(Nc1ccc2c(c1)OCO2)c1cc2n(n1)C(C(F)(F)F)CC(c1ccccc1)N2 (stereo unspecified) | 0.49 | i | -2.6%
C=CCn1c(SCC(=O)Nc2cc(NC(C)=O)ccc2OC)nnc1-c1ccccn1 | 0.98 | i | -1.6%
CCn1cc(C2=NOC(C(=O)Nc3cc(C)nn3-c3ccccc3)C2)c(C)n1 (stereo unspecified) | -0.72 | i | 3.1%
COc1ccc(NC(=O)C2CCCN(S(=O)(=O)c3cnc[nH]3)C2)cc1 (stereo unspecified) | 0.2 | i | -2.9%
COc1ccc(/C=N/n2c(=O)[nH]c3c([nH]c4ccc(C)cc43)c2=O)cc1CN1CCOCC1 | 0.45 | i | -1.2%
COc1ccc(CC(=O)Nc2ccc(S(=O)(=O)NC(C)C)cc2)cc1 | x | i | -1.4%
COC(=O)[C@H](Cc1ccccc1)NC(=O)NCc1ccc(S(N)(=O)=O)cc1 | -0.44 | i | -10%
CC1(C)Oc2ccc3ccc(=O)oc3c2/C(=C/N)C1=O | 1.3 | i | -7.6%
N#Cc1cc2sc3nnc(-c4ccncc4)n3c2cc1C#N | -0.15 | i | 0.2%
CCOC(=O)c1c(NC(=O)CSc2nnc(-c3ccncc3)n2Cc2ccco2)sc(C)c1C | x | i | 3.2%
COc1ccc(C(=O)Nc2ccc(S(=O)(=O)N3CCOCC3)cc2)cc1OC | 1 | i | 5.8%
Cc1c(NC(=O)c2ccc(F)c(S(=O)(=O)N3CCOCC3)c2)c(=O)n(-c2ccccc2)n1C | x | i | 1.6%
CCc1nc(SCC(=O)c2ccc(C)c(C)c2)n[nH]1 | -0.44 | i | -7.6%
O=C(NCc1ccccc1Cl)C1CCCN(S(=O)(=O)c2cccc3nsnc23)C1 (stereo unspecified) | x | i | -7.2%
CCCCCCc1cc2cc(-c3nnc(-c4ccccc4O)o3)c(=O)oc2cc1O | 0.56 | i | -61%
Cc1cc(CN2C(=O)c3ccccc3C2=O)cc(N2CCOCC2)c1 | -0.35 | i | -7.4%
C=CCn1c(COc2ccccc2F)nnc1SCC(=O)NC(=O)NCc1ccco1 | 0.6 | i | 1.3%

Part of the list above, reformatted.
| Structure | WNV NS2B-NS3 inh | MT1-MMP promoter | Hsc70 ATP site |
| --- | --- | --- | --- |
| CC1(C)Oc2ccc3ccc(=O)oc3c2/C(=C/N)C1=O | 1.3 | i | -7.6% |
| N#Cc1cc2sc3nnc(-c4ccncc4)n3c2cc1C#N | -0.15 | i | 0.2% |

Next records follow:
SMILES | WNV NS2B-NS3 inh | MT1-MMP promoter | Hsc70 ATP site
CCOC(=O)c1c(NC(=O)CSc2nnc(-c3ccc(OC)cc3)o2)sc2c1CCC2 | 0.0087 | i | -1.1%
C=CCNC(=O)C1CCN(S(=O)(=O)CC)CC1 | -1.1 | i | 3.8%
O=C(CSc1ncn[nH]1)NC1CC2CCC1C2 (stereo unspecified) | -0.07 | i | 5.9%
COCCn1nnnc1C(c1ccccc1)N1CCN(Cc2ccc3c(c2)OCO3)CC1 (stereo unspecified) | 0.4 | i | 1.8%
Cc1ccc(CCNC(=O)c2ccc(CS(=O)(=O)Cc3ccccc3F)o2)cc1 | x | i | -3.3%
CCn1c(=O)c2c3c(sc2n2cnnc12)CCC3 | x | i | 3.9%
CCN(CC)c1nc2cc(OC)ccc2cc1C#N | -0.48 | i | -5.2%
O=C(CCCOc1ccc(Cl)cc1Cl)N1CCc2ccccc2C1 | x | i | 1.7%
O=C(NC1CCCCC1)N1CCc2ccccc21 | -0.45 | i | 0.0%
Oc1c(-c2cc(-c3ccco3)[nH]n2)ccc2ccccc12 | 0.27 | i | -4.2%
CCCN(Cc1cc2cc(C)ccc2[nH]c1=O)S(C)(=O)=O | -0.1 | i | -3.0%
O=C1CCCCCN1CP(=O)(O)CN1CCOCC1 | -0.02 | i | -0.8%
CCOc1ccc(C(=O)N(CN2CCCC2=O)c2ccccc2)cc1 | 0.5 | i | 6.3%
Clc1ccccc1OCc1nnc(-c2ccccc2Br)o1 | 0.13 | i | 2.7%
COc1ccc2cc(C#N)c(NC(C)C)nc2c1 | -0.29 | i | -0.1%
CCn1c(SCC(=O)Nc2nc3ccccc3s2)nnc1-c1ccc(OC)cc1 | 0.07 | i | 3.1%
O=C(Nc1nncs1)c1ccc(Br)c(S(=O)(=O)N2CCCC2)c1 | 0.41 | i | -5.4%
Cc1ccc(-n2c(Cc3cccs3)nnc2SCC(=O)Nc2ccc(S(N)(=O)=O)cc2)cc1 | -0.56 | i | -5.9%
Cc1ccc(-c2nnn(CC(=O)N(CC(=O)NCC3CCCO3)c3ccc(F)c(Cl)c3)n2)o1 (stereo unspecified) | 1.3 | i | -1.1%
O=C1CCCCCN1Sc1ccccc1 | 2.3 | i | -10%
O=C(COC(=O)c1cccc(S(=O)(=O)N2CCN(c3ccccc3)CC2)c1)NCc1ccco1 | -1.7 | i | -4.7%
CCOC(=O)N1CCN(S(=O)(=O)c2ccc(OCC)c3ccccc23)CC1 | -1.1 | i | 14%
